# Compound activity from PubChem.
# PK Bst – pyruvate kinase (B. stearothermophilus) modulation. partly purified Bacillus stearothermophilus pyruvate kinase, luminescence ATP production; ribose 5-phosphate activator present at AC10. Potency, µM. 51,000 tested, 1.2% active. AID 361; in the data active means potency below about 11 µM; inconclusive means mostly about 12 µM to 25 µM; inactive means weaker than that;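 the screen sought inhibitors and activators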;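 also: potency is read from the fitted curve at half-maximal effect; scaled between full activation by ribose 5 phosphate and full inhibition by luteolin; about four in five hits inhibit and the cells do not say which; series up to 57 µM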
# YjeE inh – displaces an ADP probe from E. coli YjeE (TsaE); P0AF67; purified YjeE, fluorescence polarisation of a bound ADP probe; Potency, µM; 71,000 tested, 0.05% active; AID 605; active = well fitted falling curve; inconclusive = weaker or top-dose-only fall, or a rising curve; inactive = flat or poorly fitted curve;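 also: top concentration of the series not given in the record; excess ADP was the control for the full effect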
#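 Fluorescence polarization of a BODIPY Texas Red–ADP probe (2 uM) bound to purified YjeE (10 uM) was read after 15 min room-temperature incubation with compounds. Loss of polarization marks inhibitors; ADP serves as titrated control.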
# Starred values were filed as active, the others as inactive; i = inactive; ? = inconclusive; . = not tested or not shown. Only part of the results is shown; the hit share may differ from the screen's.
# Sequence of screens: PK Bst | YjeE inh
CC(Cc1ccccc1)C(=O)Nc1ccccc1 (centres undefined)
 : . | i
CCn1c(SCC(=O)N(C(C)C)C(C)C)nnc1-c1cc2ccccc2cc1O
 : >57 | i
COC(=O)c1c(N)n(-c2cc(OC)cc(OC)c2)c2nc3ccccc3nc12
 : >57 | i
O=C(CCN1C(=O)c2ccccc2C1=O)N1CCN(C(=O)c2ccccc2)CC1
 : >57 | i
COC(=O)c1ccc(Oc2nc(N3CCCCC3)nc(N3CCOCC3)n2)cc1
 : >57 | i
O=C(c1cccnc1)N1CCN(C(=O)c2cccs2)CC1
 : >57 | i
CCC[C@@H]1O[C@@H]2C[C@@H]3[C@@H]4CCC5=CC(=O)C=C[C@@]5(C)[C@H]4[C@H](O)C[C@@]3(C)[C@@]2(C(=O)CO)O1
 : . | i
CC(C)Oc1ccc(N2CC(C(=O)Nc3ccccc3F)CC2=O)cc1 (centres undefined)
 : >57 | i
Cc1ccc(-c2nc(CS(=O)CC(=O)NCc3ccc(Cl)cc3)c(C)o2)cc1 (centres undefined)
 : . | i
CSc1ncc(Cl)c(C(=O)C(C#N)c2nc3c(C)cc(C)cc3c(=O)[nH]2)n1 (centres undefined)
 : >57 | i
COc1ccc(-n2c(=S)[nH]c3cc(C(=O)NCc4ccco4)ccc3c2=O)cc1OC
 : >57 | i
Cn1c(SCC(=O)c2cc3ccccc3o2)nnc1-c1ccccc1
 : . | i
COc1cccc(OCc2nc3ncc(Br)cc3[nH]2)c1
 : >57 | i
COc1ccc(NC(=O)c2[nH]c(C)c(C(C)=O)c2C)cc1Cl
 : >57 | i
COCCN(CC(=O)NCc1ccccc1)C(=O)CCC(=O)Nc1ccccn1
 : >57 | i
CCn1nc(NC(=O)c2cccnc2)c2cc3cccc(C)c3nc21
 : >57 | i
CC(C)Oc1ccc(/C(O)=C2/C(=O)C(=O)N(CCN3CCOCC3)C2c2ccccc2)cc1 (centres undefined)
 : >26 | .
Cc1occc1C(=O)n1nnc2ccccc21
 : >57 | i
COC(=O)c1ccccc1NC(=O)c1nc2nc(C)cc(C)n2n1
 : . | i
O=C(O)Cc1cccc2ccccc12
 : . | i
COc1ccc(-c2nnn(CC(=O)N(CCO)C(C(=O)NC3CCCC3)c3ccc(F)cc3)n2)cc1 (centres undefined)
 : >57 | i
CCOC(=O)N1CCN(S(=O)(=O)c2ccc3c(c2)CCN3C(=O)C2CCC2)CC1
 : >57 | i
CC(Nc1n[nH]c(=S)[nH]c1=O)C(=O)OCc1ccccc1 (centres undefined)
 : . | i
CC[C@@]1(O)C(=O)COc2c1cc1n(c2=O)Cc2c-1nc1cccc(C(C)C)c1c2[Si](C)(C)C
 : . | i
Cn1c(=O)c2c(nc(NCc3ccccc3)n2CC(=O)NCc2ccccc2)n(C)c1=O
 : >57 | i
O=C(OCC#CCSc1nc2ccccc2s1)c1ccco1
 : >57 | ?
Cc1ccc(S(=O)(=O)c2cc3c(=O)n4ccccc4nc3n(C)c2=N)cc1
 : >11 | .
COc1ccc(NC(=O)C(c2ccc(C)cc2)N(C)C(=O)c2cnccn2)cc1 (centres undefined)
 : >57 | i
COc1cccc(OC)c1OCCOCCn1cnc2ccccc2c1=O
 : >57 | i
CCOC(=O)c1c(C)[nH]sc1=S
 : >26 | .
O=C(NCC1CCCO1)C1CCN(S(=O)(=O)c2cccc3nonc23)CC1 (centres undefined)
 : >57 | i
COCCNc1nc(C)nc2c1nc(-c1ccccc1)n2CCN1CCCCC1
 : . | i
CN(C)CCCn1c(NC(=O)C2CCCCC2)nc2ccccc21
 : >26 | .
COc1ccc(C2=NOC(C(=O)Nc3ccc(C)cc3)C2)cc1OC (centres undefined)
 : >57 | i
Cc1ccc(CC2S/C(=C(/C#N)C(=O)NCc3ccco3)N(c3ccccc3)C2=O)cc1 (centres undefined)
 : . | i
Clc1ccc(OCc2nn3c(-c4ccco4)nnc3s2)cc1
 : . | i
Cc1c(NC(=O)CN2C(=O)C3C4C=CC(C4)C3C2=O)c(=O)n(-c2ccccc2)n1C (centres undefined)
 : >57 | i
O=C1NC2(CCCCC2)Oc2ccccc21
 : >57 | i
CCOCC(=O)Nc1sc2c(c1C(=O)OCC)CCCC2
 : >57 | i
CN(C1CCS(=O)(=O)C1)S(=O)(=O)c1cccc2nsnc12 (centres undefined)
 : >26 | .
Cc1cc(C)nc(SCC(=O)N2CCCCC2)n1
 : . | i
CCNS(=O)(=O)c1ccc(NC(=O)c2ccccc2OCC)cc1
 : >57 | i
Cc1c(NS(=O)(=O)c2ccc(Br)s2)c(=O)n(-c2ccccc2)n1C
 : >57 | i
COc1ccc(CNc2cc(-c3ccccc3OC)ncn2)c(OC)c1
 : . | i
COC(=O)C(C#N)C(=C1C(=O)CC(C)(C)CC1=O)c1ccc(O)cc1 (centres undefined)
 : . | i
O=C(CC(SCCO)c1ccc2c(c1)OCO2)c1cccs1 (centres undefined)
 : . | i
CCS(=O)(=O)N1CCCC(C(=O)NCc2cccc(OC)c2)C1 (centres undefined)
 : >57 | i
COC(=O)[C@@]1(Cc2ccc(F)cc2)[C@H]2c3cc(C(=O)N(C)C)n(CCN4CCOCC4)c3C[C@H]2CN1C(=O)c1ccccc1
 : . | i
Cc1ccc(CNc2oc(-c3ccco3)nc2C#N)cc1
 : >57 | i
CCN1CCN(C(c2cccs2)C(C)NC(=O)c2ccco2)CC1 (centres undefined)
 : >57 | i
C[C@H](Cc1ccc(O)c(O)c1)[C@@H](C)Cc1ccc(O)c(O)c1
 : . | i
O=C(CNC(=O)c1ccco1)NCC(=O)OCc1cccc(C(=O)Oc2ccccc2)c1
 : >57 | i
CCC(=O)O[C@]1(C(=O)CCl)[C@@H](C)C[C@H]2[C@@H]3CCC4=CC(=O)C=C[C@]4(C)[C@@]3(F)[C@@H](O)C[C@@]21C
 : >26 | .
CCCn1c(SCC(=O)c2ccc3c(c2)OCCO3)nnc1-c1ccco1
 : >57 | i
O=C(CCC(=O)c1cccs1)NCc1ccccc1
 : >57 | i
CN1CCN(c2ncnc3ccc(-c4cccnc4)cc23)CC1
 : . | i
CCOc1ccc2nc3c(cc2c1)CN(CCCO)C(=NCCOC)S3
 : . | i
Cc1cccc2cc3c(N)c(C(=O)N4CCOCC4)sc3nc12
 : ? | i
CCN(CC)CCCN1C(=O)c2oc3ccccc3c(=O)c2C1c1cccc(OC)c1OC (centres undefined)
 : >57 | i
O=C(c1ccc2nc(N3CCOCC3)sc2c1)N1CCC2(CC1)OCCO2
 : >57 | i

# Further compounds
# Sequence of screens: PK Bst | YjeE inh
CN1C=CC2=C(C#N)C(N)C(C#N)(C#N)C(c3ccccc3)C2C1 (centres undefined)
 : >57 | i
COc1ccc(S(=O)(=O)n2nc(OC(=O)c3ccco3)cc2N)cc1
 : >57 | i
CC1CCN(C(=O)c2ccc(N(C)S(C)(=O)=O)cc2)CC1
 : >57 | i
CCOC(=O)CSc1nnc(-c2ccoc2C)n1-c1ccc(OCC)cc1
 : >57 | i
CCOC(=O)c1c(C)n(C)c2ccc(O)c(CN(C)C)c12
 : >57 | i
O=C(NCCCc1ccccc1)C1CC(=O)N(c2ccc3c(c2)OCCO3)C1 (centres undefined)
 : >57 | i
CCN(c1ccccc1)c1cc(C)nc2nc(C)nn12
 : . | i
CCC(C)NC(=O)CS(=O)Cc1nc(-c2cccc(C)c2)oc1C (centres undefined)
 : . | i
N#Cc1c(N)sc2c1CCCCCC2
 : >57 | i
Cc1ccccc1CN1C(=O)C2(OCCCO2)c2ccccc21
 : >57 | i
C=C(C)COc1ccc(-c2nc(N)ncc2Oc2ccccc2OC)c(O)c1
 : . | i
O=C(Nc1ccccn1)C1(c2ccccc2)CCCC1
 : . | i
CCOC12NC(=O)CC(=O)N1C(c1ccccc1)=CS2 (centres undefined)
 : . | i
Cc1c(C(=O)NCCN2CCOCC2)oc2ccccc12
 : >57 | i
CCc1ccc(NC(=O)CCN2C(=O)c3cccnc3C2=O)cc1
 : >57 | i
CCc1[nH]nc2c1C(c1cccc(OC(=O)N3CCOCC3)c1)C(C#N)=C(N)O2 (centres undefined)
 : >57 | i
COc1ccc(NC(=O)C2CC(=O)N(C)C(=Nc3ccc4c(c3)OCO4)S2)cc1 (centres undefined)
 : >57 | i
COc1ccccc1NC(=O)CSc1nc2sc(C)c(C)c2c(=O)n1Cc1ccco1
 : >57 | i
Cc1ccc(N(C(=O)c2ccc(Br)o2)C2C=CS(=O)(=O)C2)cc1 (centres undefined)
 : . | i
O=[N+]([O-])c1ccc([C@@H](Nc2ccccc2)c2ccc3cccnc3c2O)cc1
 : . | i
CC1CCN(CCNC(=O)CN(C)S(=O)(=O)c2cccc3nsnc23)CC1
 : >57 | i
CCOC(=O)Oc1ccc2c(c1)C(C)=CC(C)(C)N2C(=O)OCC
 : >26 | .
O=S(=O)(NC1c2cccc3cccc(c23)C1N1CCNCC1)c1ccccc1 (centres undefined)
 : . | i
O=C(Cn1nnc2c(cnn2-c2ccc(F)cc2)c1=O)c1ccccc1F
 : >57 | i
CCCn1c(SCC(=O)OCc2ccccc2)nc2c1c(=O)n(C)c(=O)n2C
 : >57 | i
O=C(Cn1cnc2c(nnn2Cc2ccc(F)cc2)c1=O)NCc1ccc2c(c1)OCO2
 : >57 | i
O=C1CCCC/C1=C\Nc1ccc(Cl)cn1
 : >57 | i
CC(=O)Nc1ccc(NC(=O)CSC2=NCCS2)cc1
 : >57 | i
CCOC(=O)/C=c1\sc2n(c1=O)CCN=2
 : >57 | i
O=C(NCCN1CCN(c2cccc(Cl)c2)CC1)c1cccn2c(=O)c3ccccc3nc12
 : >57 | i
Cc1ccc(-c2nnc(SCC(=O)N3CC(C)CC(C)C3)o2)cc1C (centres undefined)
 : . | i
CC1Cc2nc(SCC(=O)N3CCCc4ccccc43)n(C)c(=O)c2S1 (centres undefined)
 : . | i
COc1cc(CC(=O)OCC(=O)Nc2ccc(S(=O)(=O)N3CCCC3)cc2)cc(OC)c1OC
 : >57 | i
CCOC(=O)c1ccc(OC(=O)CCCCCN=C(N)N)cc1
 : . | i
N#Cc1cccc(-n2c(-c3ccccc3)nnc2-c2ccccc2)c1C#N
 : >26 | .
COc1ccc(C(=O)Cn2nnc(-c3ccccc3F)n2)cc1
 : >57 | i
Cc1cnc(NC(=O)CSc2nnc(CNc3ccc(F)cc3)n2CC2CCCO2)s1 (centres undefined)
 : >57 | i
c1ccc(Cn2c(NCc3ccco3)nc3ccccc32)cc1
 : >57 | i
Cc1ccc(C)c(OCCCN2CCCC2)c1
 : >57 | i
COc1cccc(Cn2c(=O)c(-c3ccc(F)c(F)c3)nc3cncnc32)c1
 : . | i
NC(=S)N/N=C\c1c[nH]c2ccccc12
 : . | i
Oc1ccc(CN2CCN(Cc3ccccc3)CC2)c2cccnc12
 : >57 | i
Cc1ccc(Cn2c(CN(C)Cc3ccccc3)nc3c2c(=O)n(C)c(=O)n3C)cc1
 : >57 | i
Cc1c(F)cccc1NC(=O)CCC(=O)O
 : >57 | i
Cc1ccccc1-c1cc(-c2ccccc2O)n[nH]1
 : i | i
CCOC(=O)c1ccc(N=CC2=C(O)CC(c3ccco3)CC2=O)cc1 (centres undefined)
 : >26 | .
COc1cccc(N2C(=O)C3CC=C(Cl)CC3C2=O)c1 (centres undefined)
 : >57 | i
O=C(Cc1c(O)c2ccccc2[nH]c1=O)NCc1ccc(F)cc1
 : >57 | i
O=C(c1ccccc1S(=O)(=O)NCc1ccccc1)N1CCCC1
 : . | i
COc1cccc(C(=O)NCc2n[nH]c(=S)n2-c2cccc(C)c2)c1
 : >57 | i
O=C1CC(c2ccc(Cl)cc2)n2nc(N3C(=O)c4ccccc4C3=O)nc2N1 (centres undefined)
 : >57 | i
CNC(=O)Nc1cccc(C(F)(F)F)c1
 : >57 | i
COc1cc(NC(=O)Cc2cccs2)cc(OC)c1
 : >57 | i
COc1cccc(C(=O)Nc2ccc(C(=O)O)cc2)c1
 : >57 | i
COc1cccc(NC(=O)CNC(=O)c2cccs2)c1
 : >57 | i
CCCc1cc(=O)[nH]c(SCC(=O)N(C)CC(=O)Nc2ccccc2CC)n1
 : >57 | i
O=C(Cn1cnc2ccccc2c1=O)OCC(=O)c1ccc2c(c1)OCCO2
 : >57 | i
CCOc1ccc2[nH]c(O)c(NC(C)=O)c2c1
 : >57 | i
CCCCn1c(SCC(=O)Nc2cc(NC(=O)c3ccco3)ccc2C)nc2ccccc2c1=O
 : >57 | i
CCCCNC(=O)c1ccc2c(c1)ncn2C1CCCCC1
 : >57 | i
CCn1c(SCC(=O)n2c(C)c(C)c3ccccc32)nnc1-c1ccco1
 : >57 | i
CCCc1nc(N)c(C#N)c(N)c1C#N
 : >57 | i
N#CC1=C(SCC(=O)NCc2ccccc2)NC(=O)CC1c1ccco1 (centres undefined)
 : >57 | i

# 4 entries picked at random from the list so far, as already listed:
# Sequence of screens: PK Bst | YjeE inh
Cc1occc1C(=O)n1nnc2ccccc21
 : >57 | i
Cc1ccc(-c2nnc(SCC(=O)N3CC(C)CC(C)C3)o2)cc1C (centres undefined)
 : . | i
Cc1ccccc1-c1cc(-c2ccccc2O)n[nH]1
 : i | i
O=C(Cn1cnc2ccccc2c1=O)OCC(=O)c1ccc2c(c1)OCCO2
 : >57 | i

# Sorted by molecular weight (smallest number first): part of the list above
# Sequence of screens: PK Bst | YjeE inh
COc1cccc(NC(=O)CNC(=O)c2cccs2)c1
 : >57 | i
CCOC(=O)c1ccc(N=CC2=C(O)CC(c3ccco3)CC2=O)cc1 (centres undefined)
 : >26 | .
O=C(Cn1cnc2ccccc2c1=O)OCC(=O)c1ccc2c(c1)OCCO2
 : >57 | i
